# Assay outcomes as filed in PubChem BioAssay.
# HCMV UL50-53 inh: cytomegalovirus nuclear egress complex inhibition. HTRF UL50-UL53 interaction, normalized percent inhibition. inhibition, % (no concentration beside the values). actives 0.15% (n = 190,000);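 active = both replicates at 50% or more, plus weaker picks with an unusually low signal ratio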;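 also: stock transfer was 100 nL into about 20 µL; 0% = negative control wells and 100% = wells with untagged competitor protein; inactives centre near -12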
# Sa growth 42C: inhibitors of Staphylococcus aureus growth at 42 °C | relative growth, % (concentration not given with the values) | actives 0.53% (n = 170,000) | AID 720641 | S. aureus RN4220 growth, OD600, 20 h; hits give low values;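 active = growth at 42 °C up to 50% and 20 or more points under that at 30 °C, or under 10% at both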;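 also: 300 nL library stock went into each well; scaled to the means of positive and negative controls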
# GIV Gai3 FP: blocks GIV peptide binding to rat Galpha-i3; Galpha-i3/FITC-GIV peptide fluorescence polarization, 90 min; hits give low values; scaled: aluminum fluoride 0%, vehicle 100%; percent of control (FP), % (test concentration not listed); actives 0.42% (n = 210,000); AID 1224905;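 active = replicate mean at 85% of control or lower, very high polarization wells dropped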;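 also: wells of about 15 µL received 100 nL stock; the first replicate is given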
# Target sequence (P08753 whole entry, looked up): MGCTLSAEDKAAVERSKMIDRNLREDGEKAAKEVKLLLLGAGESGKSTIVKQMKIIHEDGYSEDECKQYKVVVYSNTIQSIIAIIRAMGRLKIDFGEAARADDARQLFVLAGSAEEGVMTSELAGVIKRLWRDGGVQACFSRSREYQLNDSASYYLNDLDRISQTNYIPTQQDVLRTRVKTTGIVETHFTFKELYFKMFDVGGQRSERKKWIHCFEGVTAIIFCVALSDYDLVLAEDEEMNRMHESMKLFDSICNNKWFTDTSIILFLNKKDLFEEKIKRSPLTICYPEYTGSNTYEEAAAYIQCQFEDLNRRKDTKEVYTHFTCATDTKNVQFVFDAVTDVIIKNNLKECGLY
# Sa growth 42C second temp: also measured in Sa growth 42C; calls as there; relative growth, %; measured here: growth at 30 °C;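 optical density after 20 h as mean of two plates; 100% = untreated growth and lower means inhibition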
# The depositor's hits bear a star; . = no result given; & = joins results of further samples. Compounds were not picked by outcome, and some 0.8% of all compounds hit somewhere here.
SMILES,HCMV UL50-53 inh,Sa growth 42C,Sa growth 42C second temp,GIV Gai3 FP
Cn1c(SCc2nc3ccc(Cl)cc3n2CCO)nnc1C(F)(F)F,-13,102,96,.
Cc1ccc(NS(=O)(=O)c2ccc3c(c2)[C@H]2C=CC[C@H]2[C@@H](c2ccc(F)cc2)N3)cc1C,-61,96,83,130
O=C(CSc1nncc2ccccc12)c1ccc(Cl)cc1Cl,-27,102,89,.
Cc1cccc(Cn2c(SCc3ccc(C(=O)N4CCC(C)CC4)cc3)nc3ccncc32)c1,-1,110,72,104
O=C(NC1CCS(=O)(=O)C1)c1ccc(Cn2c(=O)c3cccn3c3cccnc32)cc1 (configuration not stated),50,.,.,104
Cc1ccc(C)c(CNC(=O)C2CCCCN2S(=O)(=O)c2ccc(F)cc2)c1 (configuration not stated),.,106,98,103
CCOc1ccc2nc(N(Cc3ccccc3)C(=O)c3ccco3)sc2c1,-32,94,85,108
O=C(Cc1cn2ccsc2n1)N/N=C/c1cn(-c2ccccc2)nc1-c1cccs1,-24,99,97,.
CCc1ccc(C2=C(C)C(N3CCC(C(=O)Nc4cccc(OC)c4)CC3)=NS2(=O)=O)cc1,.,114,88,114
Cc1ccc(Oc2cc(C#N)c(C#N)cc2-n2nnc3ccccc32)cc1C,-6,118,83,.

# Given tab-delimited: 3 of the compounds above
canonical_smiles	HCMV UL50-53 inh	Sa growth 42C	Sa growth 42C second temp	GIV Gai3 FP
Cc1ccc(Oc2cc(C#N)c(C#N)cc2-n2nnc3ccccc32)cc1C	-6	118	83	.
CCOc1ccc2nc(N(Cc3ccccc3)C(=O)c3ccco3)sc2c1	-32	94	85	108
O=C(CSc1nncc2ccccc12)c1ccc(Cl)cc1Cl	-27	102	89	.

# Following part
SMILES,HCMV UL50-53 inh,Sa growth 42C,Sa growth 42C second temp,GIV Gai3 FP
C#CCN1C(=O)C2C(C(=O)NC)C3C=CC2(O3)C1C(=O)NCc1ccc(OC)cc1 (configuration not stated),4,93,79,106
Cc1ccc(-c2ccc(Nc3ccc(C(=O)Nc4ccc5c(c4)OCO5)cc3)nn2)cc1,-8,.,.,102
O=C(/C=C/c1ccccc1)Nc1nc2c(s1)CCCC2,8,75,94,.
O=C(Oc1ccccc1)c1ccc2nccnc2c1,-77,105,82,103
CCn1cc(C(=O)N(C)Cc2cccc(Cl)c2)c(=O)c2ccc(C)nc21,-19,91,92,.
O=C(NC1CC(=O)N(c2ccc(F)cc2)C1)c1ccc(S(=O)(=O)N2CCOCC2)cc1 (configuration not stated),.,120,83,95
O=C(CCCO)NCc1ccc(F)cc1,-17,87,82,100
O=C(CCC1=NS(=O)(=O)c2ccccc2N1)N1CCN(Cc2ccccc2)CC1,6,.,.,115
Cc1ccc(N(C(C)C(=O)Nc2ccc(S(=O)(=O)N3CCOCC3)cc2)S(C)(=O)=O)cc1C (configuration not stated),-32,101,102,110
COCc1cc(=O)[nH]c(/N=C(\N)Nc2ccc(C)cc2)n1,-3,94,92,103
Cc1[nH]nc2c1C(c1ccccc1)NC2=O (configuration not stated),-1,127,97,95
CCOC(=O)N1CCN(S(=O)(=O)c2ccc(C(=O)Nc3nc4ccc(NC(C)=O)cc4s3)cc2)CC1,-3,.,.,101
CCN(CC)S(=O)(=O)c1cc(C(=O)N2CCc3ccccc32)ccc1Cl,-10,122,83,.
COc1ccc(CNC(=O)c2ccc3c(c2)nc2n3CCCCC2)cc1,.,91,91,102
Cc1ccc(CNC(=O)CN(C)S(=O)(=O)c2ccc(Br)s2)cc1,8,92,103,103
O=C(CCC(=O)c1cccs1)OCc1nnc(-c2ccccc2)o1,3,115,98,.
CC1CCN(S(=O)(=O)c2ccc(-c3nc(C#N)c(N4CCCC4)o3)cc2)CC1,-29,.,.,103
CCOC(=O)c1ccc(N2CCCCC2)c(N)c1,-8,95,80,101
CCC(=O)Nc1ccc2nn(-c3ccc(CC)cc3)nc2c1,-19,84,99,101
COC(=O)/C(C#N)=C/c1cccc(O)c1,-74,91,99,.
CCOC(=O)C1=C(CSc2nnc(Cc3ccc(OC)cc3)n2N)NC(=O)NC1C (configuration not stated),-27,100,96,.
CCN(CC)S(=O)(=O)c1ccc(C(=O)OC(C)C(=O)NC2CCCCC2)cc1 (configuration not stated),3,113,103,.
CCOc1cc(CNCCSc2nnnn2-c2ccccc2)ccc1OC,4,112,85,109
Cc1cc(SCC(N)=O)nc(=O)[nH]1,-12,81,84,127
COc1ccc(Nc2ccccc2NC(=O)c2cc3ccccc3o2)cc1,-29,104,95,.
Cc1ccc(S(=O)(=O)Nc2nc(C)c(NC(=O)NC3C=NN=C3)s2)cc1,-8,100,64,100
CN(CC(=O)NC(=O)Nc1ccc2c(c1)OCCO2)Cc1cccc(F)c1,2,109,96,.
Cc1ccc(NNC(=O)c2cccs2)cc1C,-15,91,79,106
COc1ccc2c(-c3ccccc3)cc(N3CCNC(=O)C3)nc2c1,15,91,76,.
CCC(C)NC(=O)c1ccc2c(c1)sc1nc(-c3ccc(OC)cc3)cn12 (configuration not stated),.,87,77,108
CSc1ncccc1C(=O)NCCc1ccccc1,8,90,91,.
COc1ccc(CNC(=O)c2cc(=O)c3cc(C)ccc3o2)cc1,-14,99,90,109
O=C(O)CSc1c[nH]c2ccccc12,-16,108,92,96
Cc1cc(C)c2c(n1)sc1c(=O)n(C(C)C(=O)NC(N)=O)cnc12 (configuration not stated),-13,69,93,.
Cc1ccc(C)c(NC(=O)Cn2c(SCC(=O)NCc3ccccc3)nc3ccccc32)c1,.,126,65,105
COC(=O)c1ccc(-c2nc3ccc(C)cc3o2)cc1,1,92,73,100
Cc1c(Br)sc2sc(Br)c(C)c12,7,98,93,108
CCOC(=O)NC(=S)Nc1ccc(N2CC(C)OC(C)C2)cc1 (configuration not stated),-18,90,91,99
Cc1ccc(-c2csc(/C=C3/NC(=O)CS3)n2)cc1,-46,121,83,.
COc1cc(/C=C2\C(=O)NC(=S)N(c3ccc(Cl)cc3)C2=O)ccc1OCC(=O)O,-29,.,.,99
O=C(NCCc1ccccc1)c1ccc(C(F)(F)F)cc1,6,93,96,.
Nc1ccc2nc(C3CCCCC3)[nH]c2c1,-3,109,78,.
C=CCN(CC=C)S(=O)(=O)c1ccc(C(=O)Nc2nnc(-c3ccc(OC)cc3OC)o2)cc1,3,94,69,101
Cc1cc2[nH]c(=O)c(=O)[nH]c2cc1S(=O)(=O)N1CCN(c2cccc(Cl)c2)CC1,.,130,86,105
CCSc1nnc(-c2ccccc2)c(-c2ccccc2)n1,-38,105,88,.
COCC(=O)Nc1ccc(-c2cn3cccnc3n2)cc1,.,104,88,107
COC(=O)C1=C(O)/C(=C\c2ccccc2)N=C1C,-38,92,85,104
CCC1Oc2ccccc2N(CC(=O)NCc2ccccc2)C1=O (configuration not stated),.,119,90,100
CCOc1ccc(-c2cc3c(=O)n(CC(=O)NCc4ccc(C)cc4)ccn3n2)cc1,.,82,88,103
CCOC(=O)c1ccc(-c2ccc(/C=C(\C#N)C(=O)Nc3c(C)cccc3Cl)o2)cc1,-66,96,86,109

# The results go on:
SMILES,HCMV UL50-53 inh,Sa growth 42C,Sa growth 42C second temp,GIV Gai3 FP
COc1ccc(CCNc2ncc3c(n2)CC(c2ccc(C(C)(C)C)cc2)CC3=O)cc1 (configuration not stated),-4,.,.,103
CCOc1cccc(CN(C(C)=O)c2ccc3[nH]c(=O)[nH]c3c2)c1OCc1ccccc1,-10,98,85,.
O=C1CCCCCCCCCCC1CN1CCOCC1 (configuration not stated),-14,112,95,104
Nc1nc2ccccc2n1C(=O)Cc1ccccc1,-4,106,75,98
CCOC(=O)c1ccccc1Nc1nc2ccc(C)cc2n2nnnc12,-6&-8,105,86,107&101
NC(=O)c1cnccn1,-48&1&-28&-11&-19,91,85,100
CCOC(=O)c1c(C)n(C)c2ccc(OCCN(CC)CC)cc12,-32,.,.,100
Nc1[nH]c(=O)ncc1F,-36&-5&-27&-3,95&88,99&90,.
Cc1ccc2cc(-c3noc(CCCC(=O)Nc4nc(C)cs4)n3)c(=O)[nH]c2c1,-23,.,.,112
Cc1ccccc1N=C(N)N=C(N)N,-21,108,89,100
NC(=O)CSC1=Nc2ccccc2C2=NC(c3ccccc3)C(=O)N12 (configuration not stated),.,78,87,97
C=CCNC(=S)Nc1ccc(C)cc1OC(F)F,1,97,90,101
CCOC(=O)c1sc(S(C)(=O)=O)c2c1CCc1conc1-2,-28,87,82,99
CCCCN(C)S(=O)(=O)c1ccc2[nH]c(=O)ccc2c1,.,105,87,105
COc1ccccc1CN1C(=O)NC(CCc2ccccc2)C1=O (configuration not stated),-8,100,95,.
CCOc1ccc(NC(=O)CSc2oc(-c3ccc(C)cc3)nc2S(=O)(=O)c2ccc(C)cc2)cc1,6,108,107,108
CC1CN(Cn2nc(-c3ccc4c(c3)OCO4)oc2=S)CC(C)O1 (configuration not stated),-2,80,87,.
C=C=CSc1nnnn1-c1ccc(Cl)cc1,-7,107,91,104
Cc1ccc(S(=O)(=O)N2C(=O)CCC2C(=O)NC2CCCCC2)cc1C (configuration not stated),3,.,.,104
c1cnc2c(c1)nnn2C1CC1,3,95,94,101
COCCN1CN(Cc2ccco2)CC2=C1CC(c1ccccc1)CC2=O (configuration not stated),-10,94,94,97
Cc1onc(-c2ccccc2Cl)c1C(=O)NN,-7,102,102,110
Cc1onc(-c2ccccc2Cl)c1C(=O)Nc1nnc(SCC(=O)Nc2ccccc2F)s1,-23,78,60,100
Cc1nc(-c2ccncc2)nc(NCCNc2cc(C(F)(F)F)ccn2)c1Cl,-17,92,87,102
CCCN1CCN(CCCNC(=O)c2cc3c(s2)-c2ccccc2OC3)CC1,-75,100,90,100
CC1CCN(C2=NS(=O)(=O)c3ccccc32)CC1,-15&-19,109,88,106&99
O=C(Nc1cccc(Cl)c1)Nc1ccccc1OCc1cc(=O)n2ccccc2n1,.,109,85,107&104
COC(=O)c1ccc(NC(=O)CC2C(=O)N(c3cccc(C)c3)C(=O)N2C2CCCC2)cc1 (configuration not stated),.,104,101,103
CCOC(=O)/C=C1\NC(=O)CS1,-25,92,88,111
O=C1CC(c2ccccc2)CC2=C1C=Nc1ccccc1N2 (configuration not stated),.,73,67,99

# Single records (already shown). Screens in order: HCMV UL50-53 inh, Sa growth 42C, Sa growth 42C second temp, GIV Gai3 FP
# Listed for CCCN1CCN(CCCNC(=O)c2cc3c(s2)-c2ccccc2OC3)CC1 → -75, 100, 90, 100
# Listed for COC(=O)c1ccc(NC(=O)CC2C(=O)N(c3cccc(C)c3)C(=O)N2C2CCCC2)cc1 (configuration not stated) → ., 104, 101, 103
# Listed for CC1CCN(C2=NS(=O)(=O)c3ccccc32)CC1 → -15&-19, 109, 88, 106&99
# Listed for O=C1CC(c2ccccc2)CC2=C1C=Nc1ccccc1N2 (configuration not stated) → ., 73, 67, 99
# Listed for Cc1nc(-c2ccncc2)nc(NCCNc2cc(C(F)(F)F)ccn2)c1Cl → -17, 92, 87, 102

# Additional compounds:
SMILES,HCMV UL50-53 inh,Sa growth 42C,Sa growth 42C second temp,GIV Gai3 FP
COc1cc(S(=O)(=O)n2ccnc2C(C)C)ccc1Br,8,101,92,107
COc1ccc(CNC(=O)c2ccc(NC(=O)CN3CC(=O)N4CCCCC4C3=O)cc2)cc1 (configuration not stated),-7,.,.,106
CC(C)S(=O)(=O)c1cnc(N2CCOCC2)nc1N,-32,109,88,106
Cn1c(=O)n(N)c(=O)c2c(-c3ccc(F)cc3F)c3c(nc21)-c1ccccc1C3=O,-2,99,96,.
O=C(Cc1ccccc1OC(=O)c1ccccc1)c1ccccc1,17,74,99,.
Cc1cccc(NC(=O)N2CCC(CN3CCCCC3)CC2)c1C,5,.,.,96
CC1=NN(C)C(=O)C1Cc1c(Cl)cccc1Cl (configuration not stated),8,105,100,100
Cc1ccc(Nc2nc(N)nc(CSc3nnc(-c4ccncc4)o3)n2)cc1,-9,89,89,99
COCCn1c(-c2ccncc2)nn(CO)c1=S,-14,90,95,.
COC(=O)c1c(OC)cc(C)nc1C,-6,101,91,105

# Two records drawn at random from those above, as already listed:
SMILES,HCMV UL50-53 inh,Sa growth 42C,Sa growth 42C second temp,GIV Gai3 FP
Cn1c(SCc2nc3ccc(Cl)cc3n2CCO)nnc1C(F)(F)F,-13,102,96,.
O=C(Nc1cccc(Cl)c1)Nc1ccccc1OCc1cc(=O)n2ccccc2n1,.,109,85,107&104

# (listing goes on)
SMILES,HCMV UL50-53 inh,Sa growth 42C,Sa growth 42C second temp,GIV Gai3 FP
Cc1oc2nc[nH]c(=O)c2c1C(=O)OC(C)C(=O)NC1CCCCC1 (configuration not stated),-31,86,95,.
Cc1cccc(CSc2nc3ccncc3n2Cc2ccc(C(=O)O)cc2)c1,-4,101,90,93
Cn1c(=O)cc(Nc2ccccc2)c2c(=O)n(-c3ccccc3)c(=O)n(-c3ccccc3)c21,0,109,93,104
N#Cc1cccc(NC(=O)COCC(=O)O)c1,2,106,108,102
CNC(=O)C1=C(C)NC(=O)NC1c1ccc(Cl)cc1 (configuration not stated),-23,90,84,101
CC1CCCN(CC(O)COCc2cccs2)C1 (configuration not stated),10,101,103,.
CCOC(=O)N1CCC(NC(=O)c2cnn(-c3ccc(C)cc3)c2-n2cccc2)CC1,.,90,85,104
CC(=O)Nc1cc(NC(C)=O)cc(C(F)(F)F)c1,9,119,95,.
Cc1[nH]c2ccccc2c1CCn1c(N)cc(=O)[nH]c1=O,-16,92,82,95
Fc1ccc(C2NCCc3c2[nH]c2ccccc32)cc1 (configuration not stated),-26,.,.,100
